Source: PubChem (National Center for Advancing Translational Sciences (NCATS))
Rango release inh: prevents RanGTP from dissociating the Rango-importin beta complex. O95149+P62826. Biochemical FRET Rango-importin beta, RanGTP-induced dissociation. Potency, µM (doses to about 46.1 µM), for the others: at the top dose activity change, negative = inhibition. actives 0.071% (n = 340,000); active means falling FRET ratio curve, often poorly fitted, with flat reads before Ran was added; inconclusive means other falling curves, or compound fluorescence or quenching; inactive means flat or rising ratio curve;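 note: potency is the fitted concentration of half-maximal effect; % of control where 0% means no effect; nearly all actives have a fitted effect of over 45% in size; -100% = wells without RanGTP and RCC1; the record marks most hits as doubtful in a second field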
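Compounds sat 5 min at room temperature with 0.1 uM Rango biosensor plus 0.25 uM importin beta, then FRET pre-read. RanGTP-RCC1 (0.6 uM Ran, 2mM GTP, 0.2 uM RCC1) added for 45 min, and the CFP/YFP post-read measured blocked complex dissociation.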
GLA inh pH 4.5: blocks human alpha-galactosidase A at pH 4.5; P06280; activity change, negative = inhibition, % at 105 µM; 230,000 tested, under 10 active; AID 1467; purified enzyme, 4-MU-alpha-Gal fluorescence, pH 4.5; inconclusive = small, poorly fitted or top-dose-only inhibition, or a rising curve; inactive = flat fitted curve, though single readings scatter; no compound was filed as active;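 note: 0% = full activity with enzyme and -100% = basal without enzyme; dose as in the result columns while the protocol names 77 µM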
Target sequence (P06280 whole entry, looked up): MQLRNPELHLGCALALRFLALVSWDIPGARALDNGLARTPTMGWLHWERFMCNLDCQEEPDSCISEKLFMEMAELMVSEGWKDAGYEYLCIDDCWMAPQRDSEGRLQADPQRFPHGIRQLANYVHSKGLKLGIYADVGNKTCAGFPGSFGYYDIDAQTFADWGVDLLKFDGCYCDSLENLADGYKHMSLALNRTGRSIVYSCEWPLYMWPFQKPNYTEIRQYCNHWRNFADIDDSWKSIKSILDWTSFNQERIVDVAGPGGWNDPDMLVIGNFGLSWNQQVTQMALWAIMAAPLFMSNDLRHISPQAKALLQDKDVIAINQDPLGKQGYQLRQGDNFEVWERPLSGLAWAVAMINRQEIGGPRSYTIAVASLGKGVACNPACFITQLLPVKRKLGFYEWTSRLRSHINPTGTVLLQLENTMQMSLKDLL
Rango-impB inh: inhibitors of Rango-importin beta complex formation. actives 0.031% (n = 340,000). Rango CFP/YFP FRET sensor + importin beta, 45 min. Q14974. Potency, µM (doses to about 92.2 µM), for inactives: at the highest dose inhibition of complex formation. AID 540263; active = rising FRET ratio curve, often small or poorly fitted; inconclusive = mostly compound fluorescence or quenching in the first reads; inactive = flat curves in all reads;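 note: potency is the fitted concentration of half-maximal effect; 0% = DMSO wells and 100% = buffer wells lacking importin beta; nearly all actives have a fitted effect of over 15% in size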
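FRET biosensor Rango (snurportin 1 IBB between N-terminal EYFP and C-terminal Cerulean), 50 nM in PBS/1 mM DTT/0.02% Tween-20/0.1% BSA, preincubated 5 min RT with compound; 0.125 microM importin beta added, 45 min RT, CFP/YFP FRET ratio read.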
miR-21 reporter: raises the signal of a miR-21 reporter; 340,000 tested, under 10 active; HeLa miR-21 FLuc reporter, luciferase, 48 h; AID 2288; Potency, µM (top dose mostly 38.3 µM), inactives show at the top dose reporter change, positive = more light; active = well fitted rising curve with a large enough effect; inconclusive = small, poorly fitted or top-dose-only effect; inactive = no such curve, though single readings can be large or run the other way;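 note: % of control where 0% means no effect; miR-21 action dims this reporter so a rising signal means less miR-21 action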
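HeLa miR-21-FLuc reporter line, endogenous miR-21; 2000 cells/well in DMEM/10% FBS; compound titration up to ~40uM final, 48 h, 37 degree Celsius; luciferase detection reagent, 15 min lysis, CCD luminescence.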
Starred values were filed as active, the others as inactive; ? = inconclusive; / = no result given; & = joins results of further samples; [ ] = dose if it differs, or a comment. These rows are one share of the data, so the mix of outcomes need not match the whole.

Sample of the layout, twelve compounds:
SMILES	Rango release inh	GLA inh pH 4.5	Rango-impB inh	miR-21 reporter
NC(=O)N/N=C/c1cc(Br)ccc1OC(=O)c1ccccc1	-9%	1	-3.6%	-3%
COc1ccc(CCC(=O)Nc2ccc(-c3noc(-c4ccc(OC)c(OC)c4)n3)cc2)cc1	-2%	-7	-1.9%	-20%
CCc1ccc(OC(C)c2nnc(SCC(=O)Nc3ncccc3C)n2C)cc1 (stereo not given)	-9%	-1	-2.9%	0%
Cc1nn(Cc2ccccc2)c(C)c1NC(=O)c1cc2nc(-c3ccco3)cc(C(F)(F)F)n2n1	?	-13	?	-5%
O=C(Cn1nnc(-c2cccc(C(F)(F)F)c2)n1)N1CCCCCC1	-20%	-1	3.3%	-11%
CCOc1cc(/C=C2/C(=O)N(c3ccccc3)N=C2C)ccc1OC(=O)c1cccs1	0%	0	-0.6%	4%
CCC(c1nnnn1C1CCCC1)N(Cc1cccs1)Cc1cc2cccc(C)c2[nH]c1=O (stereo not given)	1%	0	3.4%	12%
COc1ccc(/C=N/n2c(SC)nnc2-c2ccccc2)c(OC)c1OC	-2%	2	2.5%	27%
COc1cc2c(cc1OC)CN(C(=O)c1ccc3nc[nH]c3c1)CC2	-10%	8	-4.1%	19%
CC(C)=CCC/C(C)=C/Cc1c(O)ccc(C(=O)/C=C/c2ccc(O)cc2)c1O	-11%	?	-0.6%	-11%
NC(=O)c1cc(NC(=O)c2cc(Br)c(Br)s2)cc(C(N)=O)c1	-6%	1	?	4%
O=C(Nc1ccc(N2CCN(Cc3ccccc3F)CC2)cc1)c1ccc([N+](=O)[O-])o1	-1%	/	6.4%	3%

Main list, from the first entry:
SMILES	Rango release inh	GLA inh pH 4.5	Rango-impB inh	miR-21 reporter
NC(=O)N/N=C/c1cc(Br)ccc1OC(=O)c1ccccc1	-9%	1	-3.6%	-3%
COc1ccc(CCC(=O)Nc2ccc(-c3noc(-c4ccc(OC)c(OC)c4)n3)cc2)cc1	-2%	-7	-1.9%	-20%
CCc1ccc(OC(C)c2nnc(SCC(=O)Nc3ncccc3C)n2C)cc1 (stereo not given)	-9%	-1	-2.9%	0%
Cc1nn(Cc2ccccc2)c(C)c1NC(=O)c1cc2nc(-c3ccco3)cc(C(F)(F)F)n2n1	?	-13	?	-5%
O=C(Cn1nnc(-c2cccc(C(F)(F)F)c2)n1)N1CCCCCC1	-20%	-1	3.3%	-11%
CCOc1cc(/C=C2/C(=O)N(c3ccccc3)N=C2C)ccc1OC(=O)c1cccs1	0%	0	-0.6%	4%
CCC(c1nnnn1C1CCCC1)N(Cc1cccs1)Cc1cc2cccc(C)c2[nH]c1=O (stereo not given)	1%	0	3.4%	12%
COc1ccc(/C=N/n2c(SC)nnc2-c2ccccc2)c(OC)c1OC	-2%	2	2.5%	27%
COc1cc2c(cc1OC)CN(C(=O)c1ccc3nc[nH]c3c1)CC2	-10%	8	-4.1%	19%
CC(C)=CCC/C(C)=C/Cc1c(O)ccc(C(=O)/C=C/c2ccc(O)cc2)c1O	-11%	?	-0.6%	-11%
NC(=O)c1cc(NC(=O)c2cc(Br)c(Br)s2)cc(C(N)=O)c1	-6%	1	?	4%
O=C(Nc1ccc(N2CCN(Cc3ccccc3F)CC2)cc1)c1ccc([N+](=O)[O-])o1	-1%	/	6.4%	3%
CCCCCCSc1nc(O)c(C2OC(=O)c3c2ccc(OC)c3OC)c(=O)n1CC (stereo not given)	5%	5	-0.5%	0%
CCOC(=O)c1cncc(NC(=O)c2ccccc2)c1	-15%	4	3.3%	-3%
CCN1C(=O)[C@H]2[C@@H](c3ccc(-c4cccc(Cl)c4)cc3)N[C@@](CC(C)C)(C(=O)OC)[C@H]2C1=O	-10%	/	4.1%	/
COc1ccc(CNC2c3ccccc3-c3ccccc32)cc1OC	10%	/	-3.2%	-5%
O=C(CCCn1c(SCC(=O)c2ccc(Cl)cc2)nc2ccccc2c1=O)NCc1ccco1	6%	6	-0.6%	0%
Cc1ccc(OCCCC(=O)N(C)CC(=O)Nc2ccccc2Br)cc1	5%	/	-0.4%	/
CCOc1cccc(C2CC(=O)Nc3cc(OC)c(OC)cc32)c1 (stereo not given)	10%	/	-0.4%	-4%
CC1CCc2[nH]c3ccc(C(=O)N(C)CC(=O)Nc4ccccc4C(F)(F)F)cc3c2C1 (stereo not given)	-19%	/	-0.5%	/
O=C(NCc1ccccc1)C1=C[C@@H](C2CCCCC2)C[C@@H](OCCCCO)O1	-10%	/	3.4%	/
N#Cc1cccc(C(c2nnnn2CCc2ccccc2)N2CCN(C3CCCCC3)CC2)c1 (stereo not given)	-3%	-1	-1.1%	0%
O=C(CSC1=N/C(=C/c2ccco2)C(=O)N1c1ccc(OC(F)F)cc1)NC1CCS(=O)(=O)C1 (stereo not given)	1%	-5	-2.8%	-19%
Cc1sc2nc(C(C)C)nc(SCC(=O)N3c4ccccc4CC3C)c2c1C (stereo not given)	-7%	3	?	-12%
COc1ccccc1C1(O)CC2CCC(C1)N2S(=O)(=O)c1ccc(C(C)=O)cc1 (stereo not given)	-4%	0	2.2%	0%
COc1ccc(N2CCN(C(=O)c3ccc(-c4nc5ccccc5s4)o3)CC2)cc1	-5%	/	-1.0%	/
C[C@H](CO)N1C[C@H](C)[C@@H](CN(C)S(=O)(=O)c2ccccc2)Oc2c(NC(=O)C3CCCCC3)cccc2C1=O	15%	/	0.7%	/
CCN(CC)c1ccc(/C=N/NC(=O)C(O)(c2ccccc2)c2ccccc2)o1	/	-1	/	-9%
CCOc1ccccc1CN1CCN(S(=O)(=O)CC)CC1	5%	9	0.9%	-3%
c1ccc(-c2csc(Nc3cccnc3)n2)cc1	1%	1	-1.1%	-49%
CC1(CCc2ccccc2)NC(=O)N(Cc2cc([N+](=O)[O-])cc3c2OCOC3)C1=O (stereo not given)	-6%	-10	-1.1%	-3%
COC(=O)c1ccc(C(=O)N(Cc2ccccc2)c2ccccc2)cc1	12%	/	-3.0%	8%
O=[N+]([O-])c1ccc(-c2nnc3n2CCCCC3)cc1	-7%	/	0.9%	1%
COc1cc(/C=N/Nc2ccc(C(=O)O)cc2)ccc1O	1%	-12[21.1 µM]	-15%	-1%
CCOC(=O)N1CCN(c2nc3ccccn3c(=O)c2C=O)CC1	-3%	/	4.3%	-2%
CC(C)(C)NC(=O)C[n+]1ccc(C(N)=O)cc1	-15%	2	-0.6%	0%
COc1ccc(/C=C/C(=O)Nc2ccc(C)c(S(=O)(=O)N3CCOCC3)c2)cc1	0%	/	?	/
CC(=O)C1=C(C)NC(SCc2cccc([N+](=O)[O-])c2)=C(C#N)C1c1ccco1 (stereo not given)	9%	-6	-2.4%	-10%
Cc1cc2ccccn2c1C(=O)Nc1cccc(Cl)c1	6%	-17	0.8%	-51%
O=[N+]([O-])c1ccc(NC(=S)NCC(c2cccnc2)N2CCOCC2)cc1 (stereo not given)	-11%	-4	-2.7%	1%
O=c1ccn(-c2ccccc2)[nH]1	-10%	2[21.1 µM]	2.5%	-11%
CCOC(=O)C(=NC1CCS(=O)(=O)C1)NNc1cc(Cl)ccc1Cl (stereo not given)	-2%	-9	?	0%
CCOc1ccc2oc(=O)cc(CN3CCN(C(=O)c4ccco4)CC3)c2c1	1%	/	-0.2%	-12%
CC1CCCC(C)N1C(=O)COC(=O)CCc1nc2ccccc2c(=O)[nH]1 (stereo not given)	-4%	0	-1.6%	2%
COC(=O)c1ccc(N(CC(=O)NC2CCCCC2)C(=O)CNC(=O)c2ccco2)cc1	4%	/	0.2%	-3%
O=C(NCCCn1ccnc1)C(=O)NCC(c1cccnc1)N1CCN(c2ccc(F)cc2)CC1 (stereo not given)	1%	5	1.9%	0%
CC(C)Oc1cc(S(=O)(=O)N2CCCCC2)ccc1N	-13%	8	-1.1%	0%
CCOC(=O)CNC(=O)COc1ccc(Cl)cc1Br	-7%	-14	1.8%	-3%
COC(=O)C1=CN(C2CC2)C=C(C(=O)OC)C1c1ccc(C(=O)OC)cc1	?	?	?	1%
CC1CCCCN1S(=O)(=O)c1ccc(C(=O)N(CCCN(C)C)c2nc3cc4c(cc3s2)OCO4)cc1 (stereo not given)	2%	/	0.6%	-2%
Further results follow.
SMILES	Rango release inh	GLA inh pH 4.5	Rango-impB inh	miR-21 reporter
COc1ccc(NC(=O)c2cccc(S(=O)(=O)Nc3ccc(Br)cc3)c2)cn1	0%	4	-5.6%	?
CN(C)C(=O)CNC(=O)CN1C(=O)NC2(CCCc3sccc32)C1=O (stereo not given)	19%	/	-3.1%	0%
O=C1CC(SCCO)C(=O)N1c1ccc(Oc2ccccc2)cc1 (stereo not given)	15%	-1	-0.8%	-12%
O=C(O)C1(c2ccccc2)CCN(S(=O)(=O)c2ccc(F)c(F)c2)CC1	4%	/	-4.1%	6%
COc1ccc(-n2c(C)cc(/C=C3\C(=N)N4N=C(CC(=O)N5CCOCC5)SC4=NC3=O)c2C)cc1	?	/	?	-1%
COc1ncccc1-c1nnn(-c2ccc(Cl)c(Cl)c2)n1	9%	5	1.9%	-25%
Cc1cccc(N2C(=O)C3CC3C2=O)c1 (stereo not given)	13%	6	0.0%	6%
COc1ccc(N2CCN(C(CNC(=O)c3ccc4c(c3)OCO4)c3cccnc3)CC2)cc1 (stereo not given)	0%	1	-0.6%	-8%
CCNS(=O)(=O)c1ccc(NC(=O)Nc2ccc3c(c2)OCO3)cc1	25%	/	6.0%	-18%
COc1cccc(C2=NOC(C(=O)NC3CCCCC3)C2)c1 (stereo not given)	0%	-27	-0.8%	-7%
N/C(CS(=O)(=O)c1ccccn1)=N\OC(=O)c1ccc(Cl)cc1	-17%	-17	5.1%	-50%
Cn1c(=O)c2c(ncn2CC(=O)OCC(=O)Nc2cccc(Cl)c2)n(C)c1=O	-3%	-1	1.9%	0%
C/C(=N\NC(=O)Cc1ccccc1Cl)c1cccnc1	1%	/	2.6%	-2%
CN(Cc1nccn1C)C(=O)CCc1nnc(CCC2CCCCC2)o1	19%	6	-0.1%	-11%
NC(=O)CCCC1=NS(=O)(=O)c2ccccc2N1	-3%	-1	1.3%	-2%
COc1ccc(-c2nc3ccccc3c(=O)n2NC(=O)c2cccnc2Cl)cc1OC	6%	-7	-1.2%	-6%
Cc1ccc(N(C(=O)c2csnn2)C(C(=O)NC2CCCC2)c2ccccn2)c(C)c1 (stereo not given)	13%	/	4.2%	3%
CC(=O)NCCOc1nc(N(C)C)nc(N(C)C)n1	-20%	-3	0.0%	-2%
CN(/N=C/c1ccc(C(C)(C)C)cc1)C1=NCCN1	4%	-6	1.9%	2%
O=[N+]([O-])c1ccc(-c2cccnc2)cc1	-5%	/	1.4%	/
CSc1nsc(SCC(=O)NC2CCCCC2)n1	0%	-1	0.9%	-15%
CC1CCCCC1NC(=O)NC(=O)COC(=O)c1cncc(Br)c1 (stereo not given)	-19%	/	-1.9%	/
Cc1occc1-c1nnc(SCC(=O)N(C)CCC#N)n1N	1%	-22	-3.5%	-4%
Cc1cccc(NC(=O)CN2CCc3cc4c(cc3C2)OCCCO4)c1	-2%	/	0.4%	-5%
CC1=CC(C)C(C(=O)O)C(C(=O)N2CCN(C)CC2)C1 (stereo not given)	0%	6	0.5%	1%
CCOc1cc(CNn2nnnc2N)cc(Cl)c1OCC(=O)NC(C)(C)C	-17%	4	2.5%	-6%
N#Cc1cc(Cl)c(N2CCOCC2)cc1C#N	5%	6	-4.1%	-22%
CN(C)c1ccc(NC(=O)CC(NCc2ccccn2)C(=O)O)cc1 (stereo not given)	1%	5	-2.4%	-5%
Cc1c(F)cccc1NS(=O)(=O)c1ccc2c(c1)NC(=O)CO2	24%	0	2.6%	2%
CC(=O)Oc1ccc(/C=N/NC2=NS(=O)(=O)c3ccccc32)cc1	5%	/	0.9%	-2%
COc1ccc(C2=NOC(C(=O)O)C2)cc1 (stereo not given)	-9%	4	-3.2%	-8%
COc1ccc(N2CCN(S(=O)(=O)CCNC(=O)c3cc(=O)c4ccccc4o3)CC2)cc1	1%	/	-0.2%	-3%&-3%
